# Screening data deposited in PubChem by Broad Institute.
# DUX4 txn inh = DUX4-mediated transcription inhibition | 293T-iDUX4 ZSCAN4-Gaussia luciferase reporter, 24 h; hits give low values | activity change, negative = inhibition, % (no concentration beside the values) | actives 0.8% (n = 37,000) | AID 1224904;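 active means -10% or lower and over 25 points stronger than a control reporter; inconclusive means -10% or lower with a smaller gap; inactive means above -10%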;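 further: 0% = median of neutral control wells and -100% = median of positive control wells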
# DUX4 txn inh difference = second read-out of DUX4 txn inh, no call of its own (marks repeat the call); Gaussia minus Italica difference, %; measured here: selective DUX4 reporter inhibition;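 worked out from the two reporters; negative = selective loss of the DUX4 reporter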
# DUX4 txn inh control = second read-out of DUX4 txn inh, no call of its own (marks repeat the call); activity change, negative = inhibition, %; measured here: Italica tet-on control reporter;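 0 = neutral control and -100 = positive control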
# Active calls of the source: *; ? = inconclusive; · = not tested or not shown.
SMILES,DUX4 txn inh,DUX4 txn inh difference,DUX4 txn inh control
COc1ccccc1CNC(=O)C[C@@H]1C[C@H]2c3cc(NC(=O)c4cccnc4)ccc3O[C@H]2[C@@H](CO)O1,8.5,9.6,-1.2
Cc1ccccc1-c1ccc([C@H]2[C@@H](CO)N3CCCCN(C(=O)CN4CCOCC4)C[C@@H]23)cc1,11.2,13.6,-2.4
O=C(Nc1ccc2c(c1)[C@@H]1C[C@H](CC(=O)N3CCOCC3)O[C@H](CO)[C@@H]1O2)Nc1ccccc1F,3.2,7.2,-4.0
C/C=C/c1ccc([C@H]2[C@H](CO)N[C@H]2CN(C)S(=O)(=O)c2ccccc2)cc1,-2.0,-1.9,-0.1
O=C(O)[C@H]1[C@H](CO)[C@H]2Cn3c(ccc(/C=C/c4ccccc4)c3=O)[C@H]2N1C(=O)C1CCCC1,-3.3,0.1,-3.4
C[C@@H](NC(=O)C[C@H]1CC[C@H]2[C@H](COc3ccc(NS(=O)(=O)c4ccc(Cl)cc4)cc3C(=O)N2C)O1)c1ccccc1,-4.9,-7.2,2.3
COc1ccc2c3c([nH]c2c1)[C@@H](CO)N(C(=O)c1ccccc1)CC31CN(C(=O)NC(C)C)C1,4.0,1.5,2.6
C/C=C/c1cccc(-c2nc(C(=O)N3CCCCC3)cc3c2[C@@H](CCO)N(C(=O)NC(C)C)C3)c1,-1.0,-0.4,-0.6
CC(=O)N1[C@@H]2c3ccc(-c4ccccc4)c(=O)n3C[C@@H]2[C@@H](CO)[C@@H]1C(=O)N(C)C,1.6,0.6,1.0
CO[C@H]1CN(C)C(=O)c2cc(NS(=O)(=O)c3cn(C)cn3)ccc2OC[C@@H](C)N(CC2CC2)C[C@H]1C,-1.8,-8.1,6.2
Cc1ccccc1-c1ccc([C@@H]2[C@H](CO)N3CCCCN(CC4CC4)C[C@@H]23)cc1,1.6,-10.9,12.5
COCC(=O)Nc1ccc2c(c1)C(=O)N(C)C[C@@H](OC)[C@H](C)CN(C(=O)c1ccncc1)[C@@H](C)CO2,5.6,4.2,1.4
O=C(c1cccnc1)N1C[C@H]2[C@@H](c3ccccc31)[C@H](CO)N2C(=O)C1CCCC1,-1.5,2.4,-3.8
COCC#Cc1cnc2c(c1)C(=O)N([C@@H](C)CO)C[C@@H](C)[C@@H](CN(C)C(=O)c1ccc3c(c1)OCO3)O2,2.7,1.2,1.5
C[C@H](CO)N1C[C@H](C)[C@@H](CN(C)S(=O)(=O)c2ccc(C(F)(F)F)cc2)OCc2ccccc2-c2ccccc2C1=O,?,·,·
C[C@H](CO)N1C[C@H](C)[C@H](CN(C)C(=O)Cc2ccccn2)Oc2cc(C#C[C@@H](C)O)ccc2S1(=O)=O,-4.3,-3.4,-0.9
CCNC(=O)[C@@H]1[C@@H](CO)[C@@H]2Cn3c(ccc(C4=CCCC4)c3=O)[C@H]1N2S(=O)(=O)c1cn(C)cn1,5.2,7.2,-2.0
CO[C@@H]1CN(C)C(=O)c2cc(NC(=O)Cc3ccccc3)ccc2OC[C@@H](C)N(C)C[C@@H]1C,11.2,10.0,1.1
CC=Cc1ccc2n(c1=O)C[C@H]1[C@H](CO)[C@@H](C(=O)N3CCCCC3)[C@@H]2N1C(=O)C1CC1 (mixture of isomers),4.8,1.2,3.6
CO[C@H](C(=O)N(C)C[C@H]1OCc2ccccc2-c2ccccc2C(=O)N([C@H](C)CO)C[C@@H]1C)c1ccccc1,3.9,-4.9,8.7
O=C([C@H]1[C@H](CO)[C@H]2Cn3c(cccc3=O)[C@H]2N1CCC(F)(F)F)N1CCCCC1,0.4,0.8,-0.5
N#C[C@@H]1[C@@H](c2ccc(C3=CCCC3)cc2)[C@@H](CO)N1C(=O)C1CCC1,-7.6,0.5,-8.0
O=C(C[C@@H]1CC[C@H]2[C@@H](COC[C@@H](O)CN2Cc2cccc(-c3ccncc3)c2)O1)N1CCN(c2ccccc2)CC1,?,·,·
CC=Cc1ccc2n(c1=O)C[C@H]1[C@H](CO)[C@@H](C(=O)N3CCc4ccccc4C3)[C@@H]2N1Cc1cocn1 (mixture of isomers),2.7,6.6,-3.9
O=C(C[C@H]1CC[C@@H]2[C@H](COC[C@@H](O)CN2C(=O)c2ccc(F)cc2)O1)Nc1ccc(-c2ccccc2)cc1,-2.0,3.0,-5.0
CCCNC(=O)C[C@@H]1CC[C@@H]2[C@H](COC[C@@H](O)CN2C(=O)Nc2ccc3c(c2)OCO3)O1,15.2,0.4,14.7
C[C@H](CO)N1C[C@H](C)[C@@H](CN(C)C(=O)Nc2ccc(C(C)(C)C)cc2)OCc2cn(nn2)CCCC1=O,-5.3,-14.1,8.8
COc1ccccc1S(=O)(=O)N(C)C[C@H]1OCc2ccccc2-c2ccccc2C(=O)N([C@H](C)CO)C[C@H]1C,1.4,-10.5,11.9
COc1ccccc1NC(=O)Nc1ccc2c(c1)C(=O)N(C)C[C@@H](OC)[C@H](C)CN[C@@H](C)CO2,3.0,0.5,2.5
N#C[C@H]1[C@H](c2ccc(-c3cccnc3)cc2)[C@@H](CO)N1C(=O)C1CC1,0.1,-3.2,3.4
C/C=C/c1ccccc1[C@H]1[C@H](C#N)N(C(C)=O)[C@H]1CO,10.0,10.9,-0.8
COc1ccc(S(=O)(=O)Nc2cccc3c2O[C@@H](CN(C)Cc2ccc(C(F)(F)F)cc2)[C@H](C)CN([C@H](C)CO)C3=O)cc1,2.0,4.4,-2.4
CN(C)C(=O)[C@@H]1[C@@H](CO)[C@@H]2Cn3c(ccc(-c4cccnc4)c3=O)[C@H]1N2C(=O)NC1CCCC1,1.0,3.2,-2.1
CCS(=O)(=O)NCC[C@H]1CC[C@H](NC(=O)C2CCOCC2)[C@H](CO)O1,2.2,-1.7,3.9
O=C(C[C@H]1C[C@H]2c3cc(NC(=O)Nc4ccc(C(F)(F)F)cc4)ccc3O[C@H]2[C@H](CO)O1)NCc1ccc(Cl)cc1,-2.5,-0.3,-2.2
Cc1cccc(NC(=O)Nc2ccc3c(c2)C(=O)N(C)[C@H]2CC[C@H](CC(=O)NCc4ccccc4Cl)O[C@H]2CO3)c1,-2.7,-4.1,1.4
CCC(=O)N1[C@@H](CO)[C@@H]2c3ccccc3N(S(=O)(=O)c3ccccc3F)C[C@@H]21,0.9,-2.9,3.8
Cc1ccccc1-c1ccc([C@@H]2[C@@H](CO)N3CCCCN(C(=O)Nc4cccc(F)c4)C[C@@H]23)cc1,-26.8*,-25.9*,-0.9*
O=C(C[C@H]1CC[C@H](NC(=O)C2CCC2)[C@H](CO)O1)NCc1ccncc1,-1.3,-0.6,-0.7
O=S(=O)(N[C@@H]1CC[C@H](CCn2cc(Cc3ccccc3)nn2)O[C@H]1CO)c1ccccc1F,-0.8,0.8,-1.6

# Compounds above containing a cyano group, in the order listed:
SMILES,DUX4 txn inh,DUX4 txn inh difference,DUX4 txn inh control
N#C[C@@H]1[C@@H](c2ccc(C3=CCCC3)cc2)[C@@H](CO)N1C(=O)C1CCC1,-7.6,0.5,-8.0
N#C[C@H]1[C@H](c2ccc(-c3cccnc3)cc2)[C@@H](CO)N1C(=O)C1CC1,0.1,-3.2,3.4
C/C=C/c1ccccc1[C@H]1[C@H](C#N)N(C(C)=O)[C@H]1CO,10.0,10.9,-0.8

# (continued)
SMILES,DUX4 txn inh,DUX4 txn inh difference,DUX4 txn inh control
Cc1cccc(S(=O)(=O)N2CCCCN3[C@H](CO)[C@H](c4ccc(-c5ccncc5)cc4)[C@@H]3C2)c1,?,·,·
CCN1[C@@H]2Cn3c(ccc(/C=C/c4ccccc4)c3=O)[C@H]1[C@@H](C(=O)NCc1ccccn1)[C@@H]2CO,-6.1,0.6,-6.7
O=C(CN1CCOCC1)N1CCCCN2[C@H](C1)[C@H](c1ccc(Br)cc1)[C@@H]2CO,19.7,24.5,-4.8
Cc1noc(C)c1NC(=O)Nc1ccc2c(c1)C(=O)N([C@H](C)CO)C[C@H](C)[C@@H](CN(C)S(=O)(=O)c1cn(C)cn1)OCCCC[C@H](C)O2,4.4,0.8,3.7
COc1ccc2c3c(n(C)c2c1)[C@@H](CO)N(Cc1ccc(Cl)cc1)CC31CN(CC2CC2)C1,?,·,·
C/C=C/c1ccc([C@H]2[C@@H](CO)N(Cc3cccnc3)C23CN(C(=O)CC)C3)cc1,-4.4,-3.6,-0.8
CO[C@@H](CN(C)S(=O)(=O)c1ccccc1)[C@H](C)CN(Cc1ccccc1Cl)[C@@H](C)CO,0.8,-6.3,7.1
CO[C@H]1CN(C)C(=O)c2ccc(NS(=O)(=O)CC(F)(F)F)cc2OC[C@H](C)N(C(=O)c2ccc3c(c2)OCO3)C[C@H]1C,6.6,6.8,-0.2
C[C@H](CO)N1C[C@H](C)[C@H](CN(C)S(=O)(=O)c2cccs2)OCc2ccccc2-c2c(n(C)c3ccccc23)C1=O,?,·,·
O=C(Cc1ccccc1)N1CC[C@H]2[C@H](CO)Nc3ccc(Br)cc3[C@H]21,4.8,6.4,-1.6
CC(C)OC(=O)N(C)C[C@H]1OCc2cn(nn2)CCCC(=O)N([C@@H](C)CO)C[C@H]1C,5.3,7.1,-1.9
CC=Cc1ccc2n(c1=O)C[C@H]1[C@H](CO)[C@@H](C(=O)NCc3ccncc3)N(C(=O)NC3CCCC3)[C@@H]21 (mixture of isomers),15.4,13.4,2.0
Cc1cccc(-c2ccc([C@H]3[C@@H](CO)N4CCCCN(C(=O)c5ccncc5)C[C@@H]34)cc2)c1,?,·,·
O=C(C[C@H]1CC[C@H]2[C@@H](COC[C@@H](O)CN2C(=O)Nc2ccc3c(c2)OCO3)O1)N1CCN(c2ccccc2)CC1,-6.4,-8.6,2.2
COc1ccc(CN(C)C[C@H]2OCc3cnnn3CCCC(=O)N([C@H](C)CO)C[C@H]2C)cc1,2.5,1.2,1.4
CN1C(=O)c2cc(NC(=O)Nc3cccc(Cl)c3)ccc2OC[C@H]2O[C@@H](CC(=O)NCCc3ccncc3)CC[C@@H]21,0.4,-1.7,2.1
O=C(CCN1CCCCC1)N[C@H]1CC[C@@H](CC(=O)N2CCC(Cc3ccccc3)CC2)O[C@@H]1CO,?,·,·
O=C1CNC[C@@H]2[C@@H](c3ccc(-c4ccccc4F)cc3)[C@H](CO)N12,2.0,1.8,0.3
N#Cc1cccc(-c2ccc([C@H]3[C@H](CO)N4CCCCN(C(=O)Nc5cccc(F)c5)C[C@@H]34)cc2)c1,?,·,·
C[C@@H]1CN([C@@H](C)CO)C(=O)Cc2cc(NC(=O)Nc3cccc4ccccc34)ccc2O[C@H]1CN(C)Cc1ccc(C(=O)O)cc1,-1.0,-2.0,1.0

# Single records (already shown). Screens in order: DUX4 txn inh, DUX4 txn inh difference, DUX4 txn inh control
# CC(=O)N1[C@@H]2c3ccc(-c4ccccc4)c(=O)n3C[C@@H]2[C@@H](CO)[C@@H]1C(=O)N(C)C is entered as 1.6, 0.6, 1.0
# COCC#Cc1cnc2c(c1)C(=O)N([C@@H](C)CO)C[C@@H](C)[C@@H](CN(C)C(=O)c1ccc3c(c1)OCO3)O2 is entered as 2.7, 1.2, 1.5

# Next entries:
SMILES,DUX4 txn inh,DUX4 txn inh difference,DUX4 txn inh control
O=C(C[C@H]1C[C@@H]2c3cc(NC(=O)NC4CCCCC4)ccc3O[C@@H]2[C@@H](CO)O1)NCc1cccnc1,-0.4,2.0,-2.4
CNC[C@@H]1Oc2c(NS(=O)(=O)c3c(C)noc3C)cccc2C(=O)N([C@@H](C)CO)C[C@@H]1C,0.0,-5.3,5.3
COC(=O)C[C@H]1CC[C@@H]2[C@@H](COc3ccc(NS(=O)(=O)c4ccc(C)cc4)cc3C(=O)N2C)O1,-1.1,-3.8,2.6
CCCNC(=O)C[C@H]1CC[C@@H]2[C@H](COC[C@@H](O)CN2Cc2ccncc2)O1,-2.3,1.7,-4.0
N#C[C@@H]1[C@H](c2ccc(C3=CCCC3)cc2)[C@H](CO)N1C(=O)C1CCC1,-2.2,-4.1,1.8
C[C@@H]1CCCCO[C@H](CN(C)C(=O)Cc2ccccc2)[C@@H](C)CN([C@H](C)CO)C(=O)c2cc(NC(=O)Nc3ccc(C(F)(F)F)cc3)ccc2O1,-0.4,0.4,-0.9
CCC(=O)N1[C@@H](CO)[C@@H](c2ccccc2)C12CN(C(=O)Cc1ccccc1)C2,-3.6,-3.1,-0.5
CCC(=O)N1[C@H](CO)[C@H](c2ccccc2)[C@H]1CN(CC)C(=O)c1ccccc1,-3.6,-4.7,1.1
COc1ccc(S(=O)(=O)Nc2ccc3c(c2)C(=O)N([C@@H](C)CO)C[C@H](C)[C@@H](CN(C)C(=O)c2ccncc2)OCCCC[C@@H](C)O3)cc1,0.1,-1.5,1.6
CN1[C@@H]2Cn3c(cccc3=O)[C@H]1[C@@H](C(=O)NCC1CCCCC1)[C@@H]2CO,0.7,-5.7,6.4
C[C@H]1CCCCO[C@H](CN(C)S(=O)(=O)c2ccc(Cl)cc2)[C@@H](C)CN([C@@H](C)CO)C(=O)c2cc(NS(=O)(=O)c3cn(C)cn3)ccc2O1,-0.1,1.6,-1.6
Cc1cccc(S(=O)(=O)N(C)C[C@@H]2OCc3cn(nn3)CCCC(=O)N([C@@H](C)CO)C[C@H]2C)c1,-1.9,0.6,-2.5
CO[C@@H]1CN(C)C(=O)c2ccc(NC(=O)C3CCC3)cc2OC[C@@H](C)N(C(=O)CN(C)C)C[C@@H]1C,-3.0,1.0,-4.0
C[C@H]1CN([C@@H](C)CO)C(=O)CCCn2cc(nn2)CO[C@H]1CN(C)S(=O)(=O)c1ccc(Oc2ccccc2)nc1,4.8,8.9,-4.1
COc1ccccc1C(=O)Nc1ccc2c(c1)OC[C@H](C)NC[C@H](C)[C@@H](OC)CN(C)C2=O,1.4,1.5,-0.1
COc1cccc(S(=O)(=O)N2C[C@@H](O)COC[C@H]3O[C@@H](CC(=O)Nc4ccccc4)CC[C@@H]32)c1,0.1,2.5,-2.5

# Only part of the results is shown; rates above refer to the full screens.
